From PubChem BioAssay
Cruzain noTriton = blocks cruzain activity in detergent-free assay; Potency, µM, for inactives: max response, negative = inhibition, usual class: inhibitors; AID 1476; purified cruzain, Z-FR-AMC fluorescence, no detergent; hit rate 2.3% among 200,000;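 further: plate controls were enzyme without inhibitor for no effect and buffer without enzyme for full effect; nearly all actives have a fitted effect of over 40% in size; top concentration of the series not given in the record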
Target sequence (P25779 123-467 limits assumed): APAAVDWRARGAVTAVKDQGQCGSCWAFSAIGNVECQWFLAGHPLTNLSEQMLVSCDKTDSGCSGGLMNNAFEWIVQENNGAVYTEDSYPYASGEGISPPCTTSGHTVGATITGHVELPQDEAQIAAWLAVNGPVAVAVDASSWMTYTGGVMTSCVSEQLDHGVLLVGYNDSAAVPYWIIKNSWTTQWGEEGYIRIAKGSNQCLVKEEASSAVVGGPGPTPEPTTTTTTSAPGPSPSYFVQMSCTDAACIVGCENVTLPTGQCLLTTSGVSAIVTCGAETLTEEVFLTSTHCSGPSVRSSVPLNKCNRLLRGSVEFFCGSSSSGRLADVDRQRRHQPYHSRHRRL
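Detergent-free condition (0.00005% Triton X-100) in acetate buffer pH 5.5 with DTT. 1.5 nM enzyme and compound were pre-mixed 15 min, then 2 uM Z-FR-AMC substrate added; reaction progress from fluorescence change between first and third reads (60 s).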
MARV entry inh = Marburg virus entry inhibition; Marburg virus pseudotyped entry inhibition, cell reporter; control for the full effect not named in the record; about a third of the inactives were read at about 46 µM; Potency, µM (top dose mostly 37.8 µM), for the others: at the top dose activity change, negative = inhibition, usual class: inhibitors; hit rate 1.8% among 300,000; active = well fitted inhibition curve with a large enough effect; inconclusive = small, poorly fitted or top-dose-only effect, or effect the other way; inactive = flat fitted curve, though single readings scatter; tested in HEK293 cells; about a fifth of its hits are not listed in these tables; further: on the % scale 0 is the no-effect control and ±100 the full control effect; luciferase read-out
SARS PLpro yeast = inhibitors of SARS-CoV papain-like protease in yeast; Potency, µM (highest dose often 32.9 µM), without a hit: at the highest dose activity, positive = growth rescue; S. cerevisiae expressing SARS-CoV PLpro, growth rescue; control for the full effect not named in the record; hit rate 0.19% among 330,000; active means well fitted rising curve with a large enough effect; inconclusive means small, poorly fitted or top-dose-only effect; inactive means no such curve, though single readings can be large or run the other way; further: 0% is about no effect; nearly all actives have a fitted effect of over 55% in size; growth read by luminescence after 48 h
RE007 growth inh = less growth of the S. pombe RE007 Vpr strain. S. pombe RE007 Vpr strain, BacTiter-Glo ATP luminescence, 24 h; control for the full effect not named in the record. Potency, µM (doses to about 92.2 µM), for inactives: top-dose activity change, negative = less growth. hit rate 0.21% among 360,000; active = well fitted falling curve with a large enough effect; inconclusive = small, poorly fitted or top-dose-only effect; inactive = no such curve, though single readings can be large or run the other way;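 further: on the % scale 0 is the no-effect control and ±100 the full control effect; nearly all actives have a fitted effect of over 50% in size; the assay follows cell death caused by Vpr and the record does not say whether a fall means rescue or toxicity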
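Fission yeast RE007 carrying one integrated HIV-1 vpr copy, seeded at OD 0.01 in PMG+AL medium with 23 nL pinned compound. Grown 24 h at 30 degrees; viability read by BacTiter-Glo luminescence after 5 min.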
Lassa entry inh = blocks Lassa virus binding to or entry into cells | Lassa virus pseudotype entry inhibition, cell reporter; control for the full effect not named in the record | Potency, µM (top dose mostly 37.9 µM), inactives show top-dose activity change, negative = inhibition, actives largely listed as inhibitors | hit rate 1.2% among 300,000 | AID 540256; active means well fitted inhibition curve with a large enough effect; inconclusive means small, poorly fitted or top-dose-only effect, or effect the other way; inactive means flat fitted curve, though single readings scatter; tested in HEK293 cells; further: on the % scale 0 is the no-effect control and ±100 the full control effect; nearly all actives have a fitted effect of over 50% in size; luciferase read-out
NS1 inh = influenza NS1 inhibition; S. cerevisiae slowed by influenza A NS1, growth recovery by OD600; Potency, µM (doses to about 46.1 µM), for the others: at the highest dose activity, positive = more growth; AID 2326; hit rate 0.4% among 270,000; active means well fitted rising curve with a large enough effect; inconclusive means small, poorly fitted or top-dose-only effect; inactive means no such curve, though single readings can be large or run the other way; further: nearly all actives have a fitted effect of over 50% in size
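In this qHTS, NS1 from influenza A is expressed in budding yeast, where it slows growth. Cells are switched from glucose to 2% galactose medium (pH 6.0, -URA), treated with compound, and growth recovery is read at OD600.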
Cruzain inh Det = cruzain (T. cruzi) inhibition with detergent. Potency, µM, without a hit: max response, negative = inhibition, actives largely listed as inhibitors. purified cruzain, Z-FR-AMC fluorescence, 0.01% Triton. hit rate 0.43% among 200,000;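 further: plate controls were neutral wells for no effect and buffer without enzyme for full effect; nearly all actives have a fitted effect of over 40% in size; top concentration of the series not given in the record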
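Read-out: AMC fluorescence (360 nm excitation, 450 nm emission), four reads over 2 min, first-to-third difference used. Conditions: cruzain 1.5 nM, Z-FR-AMC 2 uM, pH 5.5 acetate, 5 mM DTT, 0.01% Triton X-100.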
2A StopGo = FMDV 2A StopGo reporter, luciferase signal | AID 1159524 | human cells with a luciferase reporter of 2A StopGo recoding; control for the full effect not named in the record | hit rate 1.2% among 410,000 | Potency, µM (doses to about 57.9 µM), without a hit: at the highest dose signal change, negative = less light; active = well fitted falling curve with a large enough effect; inconclusive = small, poorly fitted or top-dose-only effect; inactive = no such curve, though single readings can be large or run the other way; tested in HEK293T cells; further: on the % scale 0 is the no-effect control and ±100 the full control effect; nearly all actives have a fitted effect of over 45% in size; luciferase light after 4 h
Active calls of the source: *; ? = inconclusive; . = no result given; [ ] = dose if it differs, or a comment. Unless noted, the call rests on the fitted dose curve; in most records, active means well fitted curve in the direction sought with a large enough effect; inconclusive means small, poorly fitted or top-dose-only effect, or another doubt; inactive means no such curve, though single readings can be large; an effect the other way counts as inactive or inconclusive. Potency means the concentration at half of the fitted maximal effect.

Values run as follows: Cruzain noTriton | MARV entry inh | SARS PLpro yeast | RE007 growth inh | Lassa entry inh | NS1 inh | Cruzain inh Det | 2A StopGo
- COc1ccc(/C=C2\NC(=O)C(C=NCc3ccccc3)=C2O)cc1
→ -5% | 14% | 14% | -10% | ? | 10% | -2.6% | -4%
- O=C(O)CCCNCc1ccccc1F
→ -11% | 10% | -1% | 5% | 0% | -13% | 0.7% | -17%
- Cc1nn(-c2ccc(F)cc2)c(-n2cccc2)c1C(=O)N1CCN(c2ccccc2)CC1
→ ? | . | . | . | 26%[46.1 µM] | . | -5.8% | ?
- Cc1cccc2c1-c1sc(C(=O)Nc3ccc(F)cc3F)cc1CO2
→ -26% | ? | . | . | . | . | -18% | 18%
- COc1ccc2nc(N(Cc3ccccc3)C(=O)CCNC(C)=O)sc2c1
→ . | -18%[46.1 µM] | -5% | 7% | ? | 1% | . | 13%
- COc1ccc(NCc2nnc(SCC(=O)Nc3ccccc3)n2C)cc1
→ . | -2%[46.1 µM] | -2% | -14% | ? | . | . | 26%
- Cn1c(=O)c(=O)n(C)c2cc(S(=O)(=O)CCC(=O)NCc3ccccc3)ccc21
→ . | . | 7% | -2% | . | 3% | . | 0%
- CCOC(=O)c1cc(NC(=O)N(C(C)C)C(C)C)c(C)nc1C
→ 2% | 2% | 3% | -8% | -8% | -4% | 0.1% | 12%
- CCOC(=O)c1ccc(NC(=O)CN2CCc3ccccc3C2)cc1
→ 3% | -16% | 4% | -2% | 0% | -14%[9.22 µM] | -3.5% | 17%
- CCCN1CCN(c2nnc(-n3cccc3C(=O)Nc3ccccc3C(F)(F)F)s2)CC1
→ -5% | . | . | . | ? | . | -0.7% | -1%
- CCc1nnc(NC(=O)C(CC)c2ccccc2)s1 (stereo not drawn)
→ 10% | -1% | 9% | 4% | 4% | -39% | -1.5% | -3%
- Brc1ccccc1OCCCOc1cccc2cccnc12
→ . | . | -11% | -11% | . | -105% | . | 77%[activator]
- C=CCc1ccccc1OCC(O)Cn1ccnc1C (stereo not drawn)
→ 7% | 12% | 0% | -1% | -1% | 1% | 0.1% | 0%
- COc1ccc(/C=C/C(=O)OCCNC(=O)c2ccncc2)cc1OC
→ . | -3% | -2% | 4% | -11% | 2% | . | 2%
- COc1ccc(C(C)=O)cc1CSc1nnc2c(Cl)cc(Cl)cn12
→ 12% | -13% | 4% | 1% | -3% | -18% | -4.4% | -15%
- CC1CCN(c2nc3ccc(C(=O)N4CCN(Cc5ccccc5)CC4)cc3s2)CC1
→ -3% | -2% | -1% | -10% | . | 0% | -1.9% | ?
- CS(=O)(=O)c1ccc2nc(NC(=O)c3cccc(Cl)c3)sc2c1
→ . | ? | 2% | -11% | ? | 11% | . | 31%[activator]
- COCCNC(=S)Nc1ccc(S(=O)(=O)Nc2cnc3ccccc3n2)cc1
→ . | . | -8% | -1% | . | 7% | . | 84%[activator]
- O=C(NCc1ccccn1)c1ccco1
→ . | -3%[46.1 µM] | 1% | -4% | -1% | . | . | 6%
- CC1(C)Cc2ccccc2-c2nnc(SCC(=O)N3CCN(c4ccccc4)CC3)n21
→ -3% | ? | -2% | 2% | ? | -4% | 3.3% | ?
- CSc1oc(-c2ccco2)nc1S(=O)(=O)c1ccc(Br)cc1
→ -17% | . | -5% | -8% | . | -58% | -4.6% | 1%
- COc1nc(N=C(N)N)nc2ccc(C)cc12
→ -10% | -6% | -4% | . | . | 7% | -5.8% | .
- CCCSc1nsc(NC(=O)CCC)n1
→ . | ? | -2% | 1% | ? | . | . | 3%
- COc1cccc(S(=O)(=O)NCC(=O)N2CCCC2)c1
→ . | . | 5% | -4% | . | ? | . | 11%
- Cc1noc(C)c1S(=O)(=O)N1CCC(C(=O)N(C)Cc2ccccc2)CC1
→ 5% | -15%[46.1 µM] | 7% | 9% | 3% | -11% | -1.1% | -5%
- Nc1c(C(=O)Nc2ccccc2Cl)nnn1Cc1cccc(Cl)c1
→ -10% | -17%[46.1 µM] | . | . | 1%[46.1 µM] | . | -1.6% | 5%
- CCC1=C2CC[C@H]3C(=O)N(CC)C(=O)[C@H]3[C@H]2[C@@]2(Cc3ccccc3)C(=O)N(Cc3ccccc3)C(=O)N2C1=O
→ 8% | . | 1% | -10% | . | 6% | -0.3% | 12%
- Cc1ccc(S(=O)(=O)N2CCC(C(=O)OCc3ccc([N+](=O)[O-])cc3)CC2)cc1
→ -4% | 11% | -5% | 19% | 11% | 21% | 2.0% | -21%
- COCCNC(=O)CSc1n[nH]c(=O)n1CCc1ccccc1
→ . | . | 4% | 9% | . | 4% | . | -27%
- CCCC(c1nnnn1C(C)(C)CC)N(Cc1ccco1)Cc1cc2ccc(OC)cc2[nH]c1=O (stereo not drawn)
→ 7% | 13µM* | -1% | -1% | ? | ? | -15% | -13%
- Cc1cc(C(=O)NCc2cccs2)cs1
→ 1% | 12% | 1% | -5% | 3% | -5% | 3.9% | 43%[activator]
- COc1ccc(C(=O)Nc2nnc(C(F)(F)F)s2)cc1
→ -15% | ? | -3% | -12% | 6% | -98% | 0.1% | 16%
- O=C(COC(=O)Cc1cccs1)Nc1ccc(OC(F)(F)F)cc1
→ . | 8% | -7% | 1% | 0% | . | . | -1%
- CC1CCN(C(=O)CSc2nnc(CNC(=O)c3ccc(F)cc3)o2)CC1
→ . | 1% | -5% | 1% | 5% | 0% | . | -10%
- CCSc1ccc(C(=O)NCC(=O)O)cc1
→ . | ? | -2% | -2% | 27%[46.1 µM] | -1% | . | 10%
- O=C(Nc1ccc(F)cc1)C1CC(=O)n2cnnc2N1 (stereo not drawn)
→ . | -3%[46.1 µM] | 3% | -6% | 9%[46.1 µM] | . | . | 11%
- COCCN=C1N[C@@H](c2cccc(C(F)(F)F)c2)C(C(=O)OC)=C(C)N1Cc1ccccc1
→ . | . | -3% | -1% | . | 3% | . | -24%
- Cc1oc(-c2cccc(Cl)c2)nc1CN1CCCC(C(=O)NCc2ccc(F)cc2)C1 (stereo not drawn)
→ -6% | 15%[46.1 µM] | . | . | 6%[46.1 µM] | . | 1.9% | ?
- COc1ccc(NC(=O)c2cccc(S(=O)(=O)N3CCc4ccccc43)c2)cn1
→ . | -15%[46.1 µM] | 3% | -14% | -1% | -8% | . | ?
- COCCCNC(=O)c1c(NC(=O)c2ccccc2)n(Cc2ccccc2)c2nc3ccccc3nc12
→ . | -15% | . | 19% | -19% | . | . | 70%

Brought forward from above: 3 compounds, followed by the next part.
Values run as follows: Cruzain noTriton | MARV entry inh | SARS PLpro yeast | RE007 growth inh | Lassa entry inh | NS1 inh | Cruzain inh Det | 2A StopGo
- Cc1oc(-c2cccc(Cl)c2)nc1CN1CCCC(C(=O)NCc2ccc(F)cc2)C1 (stereo not drawn)
→ -6% | 15%[46.1 µM] | . | . | 6%[46.1 µM] | . | 1.9% | ?
- COc1ccc(NC(=O)c2cccc(S(=O)(=O)N3CCc4ccccc43)c2)cn1
→ . | -15%[46.1 µM] | 3% | -14% | -1% | -8% | . | ?
- COCCCNC(=O)c1c(NC(=O)c2ccccc2)n(Cc2ccccc2)c2nc3ccccc3nc12
→ . | -15% | . | 19% | -19% | . | . | 70%
- COC(=O)c1ccc(N2CCN(C(=O)C3CC3)CC2)c([N+](=O)[O-])c1
→ . | ? | 0% | 6% | 12%[46.1 µM] | 1% | . | -9%
- CCCC(=O)N1CCC(O)(c2cccc(F)c2)CC1
→ . | 18%[46.1 µM] | -3% | 4% | 7% | . | . | -8%
- CCOC(=O)c1cc2c(=O)n3ccccc3nc2n(CCCOC)c1=NC(=O)c1c(-c2ccccc2Cl)noc1C
→ -4% | -1%[46.1 µM] | . | . | -5%[46.1 µM] | . | 0.8% | -3%
- O=C(Nc1cccn2ncnc12)c1ccc(Cl)cc1
→ 7% | ? | -3% | -24% | ? | 0% | 5.4% | 11%
- CN(C(=O)Nc1ccccc1)C1CCS(=O)(=O)C1 (stereo not drawn)
→ 3% | 7%[46.1 µM] | -21% | 16% | 3% | 9% | 0.5% | -3%
- Cc1ccc(NC(=O)c2nnn(-c3cc(C)cc(C)c3)c2N)cc1
→ 4% | ? | -16% | ? | 2% | -57% | -3.9% | -5%
- O/N=C/c1ccnc(SCc2ccccc2)n1
→ . | ? | -1% | 8% | ? | -10% | . | 67%[activator]
- CN(C)/C=C(/C#N)C(=O)c1cccc(Oc2ccc(C(C)(C)C)cc2)c1
→ ? | ? | -12% | 19% | -16% | -1% | -15% | ?
- COc1ccc(/C=c2\s/c(=C\C(=O)C(C)(C)C)[nH]c2=O)cc1O
→ . | 1% | -1% | -13% | . | -4% | . | -3%
- CSc1ccccc1NC(=O)CCS(=O)(=O)c1nc(-c2cccs2)cc(C(F)(F)F)n1
→ -28% | -2%[46.1 µM] | . | . | 1%[46.1 µM] | . | -9.6% | -18%
- O=C1COc2ccc(C(=O)COC(=O)CCOc3ccccc3)cc2N1
→ . | -20% | -2% | 3% | 0% | . | . | -24%
- O=[N+]([O-])c1cc(Cl)cc(/C=N/NC(=S)Nc2cc(S(=O)(=O)N3CCOCC3)ccc2Cl)c1O
→ . | . | -1% | 9% | . | 6% | . | -24%
- COc1cc(C(=O)Nc2cc(Cl)ccc2-n2cncn2)ccc1OC(F)F
→ . | ? | 4% | -6% | -23% | . | . | -4%
- COc1ccc(CCCc2nnc(SCC(=O)Nc3cc(F)ccc3C)o2)cc1
→ 1% | -4%[46.1 µM] | . | . | 11%[46.1 µM] | . | -7.4% | -24%
- CN1CCN(NC(=S)NC(C)(C)CC(C)(C)C)CC1
→ . | ? | 2% | 3% | ? | . | . | -22%
- CCC(=O)N1CCN(c2ccccc2NC(=O)c2ccc(-c3cccc([N+](=O)[O-])c3)o2)CC1
→ -13% | ? | -8% | 1% | -15% | 20% | -7.7% | -17%
- Cc1ccccc1CSc1nnc(-c2cccs2)n1Cc1ccco1
→ 5% | ? | -16% | 6% | 3% | -79% | -7.2% | -23%
- COCCN(Cc1cn(C)nc1-c1ccccc1F)C(C)C
→ . | -16%[46.1 µM] | 0% | -2% | 8%[46.1 µM] | 4% | . | 5%
- Cc1cccc(NS(=O)(=O)c2ccc3c(c2)n(C)c(=O)n3C)c1C
→ -3% | . | . | . | -28%[46.1 µM] | . | 0.2% | -7%

Random draw from the library, and some 4.6% of all compounds hit somewhere here.
